Screens deposited in PubChem by several laboratories.
LANA-H2A inh: blocks KSHV LANA binding to histone H2A/H2B; inhibition, % (concentration not given with the values); cell-free LANA-H2A/H2B peptide, fluorescence polarization; AID 2629; Q9QR71; hit rate 0.6% among 320,000; in the data active means inhibition mostly above about 10%, no sharp cut-off; inactive means mostly below about 6.7%;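 further: stock transfer was 7.5 nL into about 10 µL; 0% = median of vehicle wells and 100% = median of positive control wells; one replicate is shown; the record names a cut of 25% in any replicate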
Target sequence (Q9QR71 whole entry, looked up): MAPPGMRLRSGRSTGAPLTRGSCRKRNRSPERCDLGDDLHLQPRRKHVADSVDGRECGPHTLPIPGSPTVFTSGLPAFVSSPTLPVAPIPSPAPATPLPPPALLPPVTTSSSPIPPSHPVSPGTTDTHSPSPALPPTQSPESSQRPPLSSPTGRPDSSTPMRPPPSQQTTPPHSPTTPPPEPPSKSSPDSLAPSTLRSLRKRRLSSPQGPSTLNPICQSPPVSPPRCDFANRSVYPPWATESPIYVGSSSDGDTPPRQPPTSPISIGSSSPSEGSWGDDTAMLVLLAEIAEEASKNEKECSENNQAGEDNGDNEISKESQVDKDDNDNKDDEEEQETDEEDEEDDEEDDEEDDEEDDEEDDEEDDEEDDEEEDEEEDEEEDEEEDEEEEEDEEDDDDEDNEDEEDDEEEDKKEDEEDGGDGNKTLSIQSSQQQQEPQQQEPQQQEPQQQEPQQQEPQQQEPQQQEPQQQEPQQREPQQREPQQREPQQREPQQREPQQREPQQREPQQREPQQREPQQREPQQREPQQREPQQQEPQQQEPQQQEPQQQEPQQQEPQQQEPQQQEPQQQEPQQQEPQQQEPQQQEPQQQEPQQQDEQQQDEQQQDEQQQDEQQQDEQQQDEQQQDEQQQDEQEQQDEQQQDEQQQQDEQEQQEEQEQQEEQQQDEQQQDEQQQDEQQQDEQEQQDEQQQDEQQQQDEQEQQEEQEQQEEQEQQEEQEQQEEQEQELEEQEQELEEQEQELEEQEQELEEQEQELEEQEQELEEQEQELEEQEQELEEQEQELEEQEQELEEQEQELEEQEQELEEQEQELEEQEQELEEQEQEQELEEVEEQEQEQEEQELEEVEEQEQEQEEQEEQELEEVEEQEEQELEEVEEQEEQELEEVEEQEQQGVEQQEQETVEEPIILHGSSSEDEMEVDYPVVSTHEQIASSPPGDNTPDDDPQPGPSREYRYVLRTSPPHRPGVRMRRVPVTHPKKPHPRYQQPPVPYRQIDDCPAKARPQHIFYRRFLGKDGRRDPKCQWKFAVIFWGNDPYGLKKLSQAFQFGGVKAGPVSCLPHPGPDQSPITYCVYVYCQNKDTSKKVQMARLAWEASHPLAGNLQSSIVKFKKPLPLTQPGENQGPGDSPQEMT
B2AR ag: human beta-2 adrenergic receptor agonism by FAP; hit rate 0.43% among 340,000; Am2.2-beta2AR cells, FAP receptor internalization, flow cytometry; reference of the scale not given here; AID 504454; response, % (concentration not given with the values); P07550;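 active means response above a set limit, near 3 SD of response in nonfluorescent compounds, cut at about 42% in these data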;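 further: stock transfer was 100 nL into about 11 µL; a reference agonist was the positive control; negative values mostly stem from fluorescent compounds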
HNF4A DNA FP: change in binding of human HNF4 alpha to DNA; activity change, % at 10 µM; HNF4a-FITC DNA binding, fluorescence polarization, 1 h; hit rate 0.3% among 360,000; in the data active means activity change above about 30%, passing the limit was not always enough;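 further: controls were the assay level and a saturating level of protein; the project sought stronger binding though the title names inhibitors; some compounds called inactive have numbers as strong as hits; positive values seem to mean higher polarization but the record does not say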
E coli growth: E. coli growth inhibition | Escherichia coli growth, OD600, 23 h; active compounds read low | hit rate 0.21% among 330,000 | OD600 absorbance (no concentration beside the values);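 active means OD600 absorbance below the run mean of sample wells minus 3.6 SD, in any replicate, cut at about 0.56 in these data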;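 further: stock transfer was 300 nL into about 60 µL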
ALR H2O2 inh: blocks human ALR sulfhydryl oxidase activity; purified ALR, DTT oxidation, H2O2 HRP-luminol luminescence; inhibition, % (test concentration not listed); hit rate 3.8% among 290,000;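 active means mean and each replicate at 75% or more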;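 further: stock transfer was 7.5 nL into about 7.5 µL; 0% = neutral wells and 100% = wells with inactivated enzyme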
FGF22 binding: binders of recombinant human FGF22 by thermal shift | hit rate 1.5% among 340,000 | SYPRO orange fluorescence; percent of sucrose octasulfate shift, DMSO zero | calls only at 9.99 µM | AID 651658;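 active means melting point raised past a set limit in the mean and every replicate; three in four hits are not shown here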
UCH37 DUB inh: inhibitors of human deubiquitinating enzyme UCH37 | Q9Y5K5 | purified proteasome/UCH37, Ub-AMC cleavage fluorescence | inhibition, % (test concentration not listed) | hit rate 0.33% among 330,000;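 active means mean of two replicates above 20%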;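 further: 0% = compound-free wells with enzyme and 100% = wells lacking proteasome; stock transfer was 100 nL into about 20 µL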
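Material: Human UCH37 enzyme supplied as purified proteasome complex | Schedule: 30 min preincubation with enzyme, 25 min cleavage at room temperature | Detection: AMC fluorescence 355/460 nm | Measure: % inhibition of Ub-AMC cleavage fluorescence | Controls: Wells without proteasome as full block, compound-free enzyme plus substrate as uninhibited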
The depositor's hits bear a star; i = inactive; / = no result given. Only part of the results is shown; the hit share may differ from the screen's.

SMILES	ALR H2O2 inh	E coli growth	LANA-H2A inh	FGF22 binding	UCH37 DUB inh	HNF4A DNA FP	B2AR ag
CS(=O)c1ccccc1-c1nc(-c2ccc([N+](=O)[O-])cc2)no1 (stereo unspecified)	/	0.67	/	i	2.9	3.9	2
Cc1cc(C(=O)Nc2ccccc2C(F)(F)F)no1	-1	0.7	0.5	/	2.5	7.0	1
CCc1nc(Nc2ccc3c(c2)OCO3)c2oc3ccccc3c2n1	13	/	-3.5	/	/	-1.7	6
CC1(C(=O)OCC(=O)Nc2ccc(S(=O)(=O)N3CCOCC3)cc2)CC1(Cl)Cl (stereo unspecified)	-10	0.65	-0.6	i	1.1	2.0	-8
CCSc1sccc1C1C(C#N)=C(N)N(c2cccnc2)C2=C1C(=O)CC(C)(C)C2 (stereo unspecified)	8	0.66	2.5	/	6.7	4.6	-16
CN1CCSc2ccc(C(=O)Nc3cccc(F)c3)cc21	18	0.61	-7.3	i	-187	2.0	4
O=C1CC(c2ccc(Cl)cc2)n2nc(N3C(=O)c4ccccc4C3=O)nc2N1 (stereo unspecified)	4	0.73	-0.6	/	-0.2	4.3	-6
CCCCc1nc2c(C)c(N)cnc2n1Cc1cccc([N+](=O)[O-])c1	-22	0.65	-6.9	i	0.2	1.7	-2
CCOC(=O)C1=C(COC(=O)c2sccc2C)NC(=O)NC1C (stereo unspecified)	-7	0.66	0.7	i	1.2	-4.8	-6
O=C(OCC(=O)c1c[nH]c2ccccc12)c1ccc([N+](=O)[O-])s1	-24	0.64	4.7	i	8.2	2.5	0
Cc1cccc(-c2noc(CN(C)C(=O)c3ccoc3C)n2)c1	-2	0.65	-3.1	i	2.4	2.1	-2
N/C(=N\OC(=O)C1CC1)c1ccc([N+](=O)[O-])s1	-26	/	3.6	i	/	0.7	-1
Cc1ccc(Cl)cc1NC(=O)C(=O)N1CCCCC1	-14	0.67	-5.8	i	-1.6	0.1	-3
COc1cccc(COc2ccccc2C2Nc3ccc(Br)cc3C(=O)N2NC(=O)c2ccncc2)c1 (stereo unspecified)	-8	0.77	-0.4	/	-5.9	-0.6	-17
Cn1cc([N+](=O)[O-])c(C(=O)NC2CCCC2)n1	/	0.72	/	i	2.5	-0.4	-1
CCC(C)c1ccccc1NC(=O)C(C)N(C)Cc1cccc(OC)c1 (stereo unspecified)	-9	0.67	-1.7	i	1.4	1.5	0
CC(C)(C)c1ccc(OCCC(=O)NCCc2ccc(S(N)(=O)=O)cc2)cc1	-18	0.67	-0.2	i	0.7	5.4	-3
CC1CCN(c2c(NCc3ccc(C(=O)NCC4COc5ccccc5O4)cc3)c(=O)c2=O)CC1 (stereo unspecified)	4	0.75	-2.1	i	6.5	3.7	-10
CCOC(=O)c1ccc(NC(=O)Cn2c(-c3nonc3N)nc3ccccc32)cc1	-35	0.67	-0.7	i	1.6	3.2	2
CC(C)(C)OC(=O)N1CCCC(C(=O)Nc2cccc(C(=O)NCCCc3ccccc3)c2)C1 (stereo unspecified)	/	/	/	i	/	-1.1	5
CC1(O)c2ccccc2C(=O)N1Cc1ccccc1 (stereo unspecified)	1	0.67	-8.7	/	5.0	-0.2	2
COc1ccc(Cl)cc1C(=O)OCC(=O)Nc1sccc1C(N)=O	0	0.74	-2.4	i	4.4	-0.8	6
Nc1nc(CN2CCN(c3ccccc3F)CC2)nc(N2CCCc3ccccc32)n1	0	0.68	-3.7	i	3.6	-0.7	1
Cc1cc(C)c2cc(CN(Cc3ccc4c(c3)OCO4)Cc3nnnn3Cc3ccco3)c(=O)[nH]c2c1	/	0.75	-3.4	/	-1.1	11	-2
CN(C1CC(C)(C)NC(C)(C)C1)S(=O)(=O)CC12CCC(CC1=O)C2(C)C (stereo unspecified)	-8	0.72	-1.7	i	2.0	-2.0	-10
O=c1[nH]c(-c2ccncc2)nc2ccccc12	14	0.65	-4.4	/	1.6	4.3	25
COc1ccc(OC)c(C2=NOC(C(=O)Nc3c(C)n(C)n(-c4ccccc4)c3=O)C2)c1 (stereo unspecified)	1	0.69	-0.5	i	-1.1	1.0	-3
CCCCCCCCN1[C@@H](CC(=O)O)c2ccc(C(F)(F)F)cc2S1(=O)=O	97*	/	-2.5	i	-1.1	1.7	-9
Cc1ccc(C(=O)N(CC(=O)NC2CCCC2)c2ccc(F)cc2)s1	-7	0.64	1.0	i	3.5	-0.9	-3
COc1cccc(NC(=O)CN(C)C(=O)c2ccc(N3CCOCC3)c([N+](=O)[O-])c2)c1	2	0.63	-0.8	i	0.9	3.9	-5

Fetched by compound from above (6):
SMILES	ALR H2O2 inh	E coli growth	LANA-H2A inh	FGF22 binding	UCH37 DUB inh	HNF4A DNA FP	B2AR ag
CN(C1CC(C)(C)NC(C)(C)C1)S(=O)(=O)CC12CCC(CC1=O)C2(C)C (stereo unspecified)	-8	0.72	-1.7	i	2.0	-2.0	-10
CCCCCCCCN1[C@@H](CC(=O)O)c2ccc(C(F)(F)F)cc2S1(=O)=O	97*	/	-2.5	i	-1.1	1.7	-9
CC1(O)c2ccccc2C(=O)N1Cc1ccccc1 (stereo unspecified)	1	0.67	-8.7	/	5.0	-0.2	2
COc1ccc(Cl)cc1C(=O)OCC(=O)Nc1sccc1C(N)=O	0	0.74	-2.4	i	4.4	-0.8	6
O=c1[nH]c(-c2ccncc2)nc2ccccc12	14	0.65	-4.4	/	1.6	4.3	25
COc1cccc(NC(=O)CN(C)C(=O)c2ccc(N3CCOCC3)c([N+](=O)[O-])c2)c1	2	0.63	-0.8	i	0.9	3.9	-5

Additional entries follow.
SMILES	ALR H2O2 inh	E coli growth	LANA-H2A inh	FGF22 binding	UCH37 DUB inh	HNF4A DNA FP	B2AR ag
NC(=O)c1ccccc1NC(=O)COc1ccc(Cl)cc1	3	0.6	-2.1	i	5.7	-2.1	-2
COC(=O)/C=C1/SC(=NC(=O)c2ccc(F)cc2)NC1=O	3	0.66	6.1	i	9.1	4.6	7
O=C(CCC(=O)Nc1ccccc1)NNS(=O)(=O)c1ccc(Cl)cc1	9	0.64	2.2	i	1.6	2.9	0
NC(=O)C1(Nc2ccc(C(=O)O)cc2)CCCC1	/	0.71	/	i	1.9	0.4	-1
C/C(=N\O)c1sc(-c2ccccc2)nc1C	/	/	/	i	/	0.2	8
CN1CCN(CC(=O)n2c3c(c4ccccc42)CCCC3)CC1	10	0.7	-13	/	8.0	6.2	7
Cc1cccc(C(=O)C2CCN(S(=O)(=O)c3ccc(C(=O)O)cc3)CC2)c1	/	/	-13	i	/	179	-2
Cc1cc(C)nc(SCc2ccc(C(=O)N/N=C/c3ccccn3)cc2)n1	2	/	-3.2	i	/	3.2	2
Cc1ccc(OCCC(=O)N(CCC(C)C)c2c(N)n(Cc3ccccc3)c(=O)[nH]c2=O)cc1	-4	0.66	4.4	/	4.0	1.1	-10
O=C(O)CC1(CC(=O)Nc2ccc(Br)cc2)CCCCC1	-1	0.68	0.3	i	1.9	5.5	3
O=C(CNS(=O)(=O)c1cccc(Cl)c1)Nc1ccc(-c2nc3ccccc3s2)cc1	/	0.73	-0.7	/	-12	18	-5
CCOC(=O)c1c(NC(=O)COC(=O)c2ccncc2)sc(C)c1C	2	0.7	-11	i	-0.6	-1.1	-1
O=C(NCc1ccncc1)c1ccc(Cn2cc(C(F)(F)F)ccc2=O)cc1	-9	0.71	0.8	/	-0.1	-1.3	-4
C=CCN1CCN(C(c2ccc(Cl)cc2)c2nnnn2CCc2ccc(OC)c(OC)c2)CC1 (stereo unspecified)	-4	0.71	-0.8	/	-0.4	0.3	2
COc1ccc(C2/C(=C(/O)c3ccccc3)C(=O)C(=O)N2CC(C)O)c(OC)c1 (stereo unspecified)	-15	0.67	-1.3	/	11	-1.0	12
Cc1cccc(-c2nnc3sc(-c4ccccc4C)nn23)c1	-1	0.69	-0.8	/	1.3	-0.5	10
CCC(=O)Nc1ccc(/C=C(\C(C)=O)C(=O)c2ccccc2)cc1	67	0.64	3.5	i	2.6	5.5	-3
C=CCn1c(SCC(=O)Nc2ccc(F)cc2)nnc1-c1cnccn1	-17	0.64	0.3	i	1.1	-0.7	0
Oc1ccccc1-c1nnco1	/	/	/	i	/	-4.7	-3
CCOC(=O)/C(C#N)=C/C1=C(N2CCCC2)CC(C)(C)OC1	38	0.8	1.3	/	4.3	-0.4	-3
COc1ccc(CSC2=NCCN2)cc1Cl	100*	0.66	1.6	/	4.4	-2.7	-1
CC(C)c1ccc(C2OCCCO2)cc1	/	0.67	/	i	3.3	3.7	0
CCOC(=O)C1=C(SCC(=O)Nc2ccccc2)NC(=O)C(C#N)C12CCCCC2 (stereo unspecified)	89*	0.66	5.4	/	4.2	-0.7	-8
CC1(C)OC1(C#N)c1ccccc1 (stereo unspecified)	/	0.7	/	i	0.2	0.9	3
COc1ccc(NC(=O)N(C)C[C@H]2Oc3ccc(NC(=O)c4ccncc4)cc3C(=O)N([C@H](C)CO)C[C@@H]2C)cc1	-7	/	9.4	i	1.8	-3.4	-5
COc1ccc(C(=O)NCCCN2CCCC2=O)cc1	-3	0.73	0.7	/	-2.1	-0.1	-6
CC(=O)Nc1ccc(NC(=O)C(C)OC(=O)c2ccc3[nH]c(C)c(C)c3c2)cc1 (stereo unspecified)	5	0.63	2.6	/	-4.2	1.0	2
CCCN(CC(=O)Nc1ccccc1OC)C(=O)c1cc2ccccc2o1	-4	0.69	-0.1	i	1.8	1.2	-4
C=CCOc1ccccc1CNCc1cccnc1	-4	0.71	2.4	/	1.4	-0.9	-4
CCN(C(=O)Cn1c(=O)oc2ccccc21)c1cccc(C)c1	-2	0.67	-0.8	i	1.4	2.0	-5
CN(C)C(=O)C1OC(C)(C)OC1C(=O)N(C)C (stereo unspecified)	-4	0.69	2.0	/	2.2	1.9	-2
COc1cc(CN2CCc3c([nH]c4ccccc34)C2)cc(OC)c1	12	0.65	-3.6	i	2.5	13	3
CCC1CCc2sc(C(=O)OCC(=O)N(CCOC)c3c(N)n(Cc4ccccc4)c(=O)[nH]c3=O)cc2C1 (stereo unspecified)	-16	0.7	-1.3	i	-0.2	12	1
C[C@H](NC(=O)C1CCN(S(=O)(=O)c2ccccc2)CC1)C(=O)NCc1ccc(Cl)cc1Cl	-32	0.69	11	i	0.5	2.6	3
CC(On1nnc2ccc(S(=O)(=O)N3CCOCC3)cc21)C(=O)Nc1ccccc1F (stereo unspecified)	14	0.69	3.6	i	2.7	2.3	0
COc1ccc(C(=O)NCCc2ccc(S(N)(=O)=O)cc2)cc1OC	-4	0.61	-1.6	/	-0.2	0.5	13
Cc1ccc(Nc2nc(N)nc(CSc3nccn3C)n2)c(C)c1	-24	0.73	-6.1	/	1.4	-0.1	-13
CCCNCc1cc(OC)c(OCc2ccccc2)cc1Br	-8	0.64	i	i	1.6	3.8	-2
COCc1cc(C)nc(SCC(=O)NCc2ccco2)c1C#N	5	0.69	1.6	/	2.2	2.0	8
O=C(NC1=NCCS1)c1ccc([N+](=O)[O-])cc1Cl	-11	0.68	-1.2	/	1.4	1.1	0
Cc1cc(NC(=O)CSc2ccc(-c3ccccc3)nn2)no1	/	0.66	-3.3	/	1.9	-0.9	8
CCCCN1C(=O)CCC(C(=O)O)C1c1ccc([N+](=O)[O-])cc1 (stereo unspecified)	-6	0.68	1.6	i	0.7	0.1	-3
CNC(=O)c1ccc(N(Cc2ccccc2C)S(C)(=O)=O)cc1	-2	0.66	-2.9	/	4.8	1.2	-6
Cc1ccc(NC(=O)c2ccc(OC(=O)COc3cccc(Cl)c3)cc2)cc1	0	0.69	6.8	/	3.8	0.4	4
CCN(CC)S(=O)(=O)c1ccc(NC(=O)c2cc(=O)[nH]c3ccccc23)cc1	-11	0.7	1.9	i	-3.2	-1.7	-8
